# GIV Gai3 FP: inhibitors of GIV GBA-motif binding to rat Galpha-i3; P08753; Galpha-i3/FITC-GIV peptide fluorescence polarization, 90 min; active compounds read low; scaled: aluminum fluoride 0%, vehicle 100%; percent of control (FP), % (no concentration beside the values); 210,000 tested, 0.42% active; AID 1224905;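 active = replicate mean at 85% of control or lower, very high polarization wells dropped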;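 also: wells of about 15 µL received 100 nL stock; the first replicate is given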
# Target sequence (P08753 whole entry, looked up): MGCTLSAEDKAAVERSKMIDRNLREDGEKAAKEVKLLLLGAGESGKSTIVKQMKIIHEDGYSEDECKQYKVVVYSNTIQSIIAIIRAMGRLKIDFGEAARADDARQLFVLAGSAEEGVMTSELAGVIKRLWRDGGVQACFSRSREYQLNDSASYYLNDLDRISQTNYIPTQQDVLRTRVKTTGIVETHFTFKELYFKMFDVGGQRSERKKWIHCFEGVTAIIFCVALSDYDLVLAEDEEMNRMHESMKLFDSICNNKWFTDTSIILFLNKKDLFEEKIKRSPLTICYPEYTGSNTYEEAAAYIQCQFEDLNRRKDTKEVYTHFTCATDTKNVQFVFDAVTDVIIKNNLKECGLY
# Sa growth inh: inhibitors of Staphylococcus aureus growth at 42 °C | S. aureus RN4220 growth, OD600, 20 h; active compounds read low | relative growth, % (concentration not given with the values) | 170,000 tested, 0.53% active;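 active = growth at 42 °C up to 50% and 20 or more points under that at 30 °C, or under 10% at both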;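 also: 300 nL library stock went into each well; scaled to the means of positive and negative controls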
# HCMV UL50-53 inh: inhibitors of HCMV UL50-UL53 nuclear egress complex interaction | AID 1918969 | inhibition, % (test concentration not listed) | 190,000 tested, 0.15% active | HTRF UL50-UL53 interaction, normalized percent inhibition;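 active = both replicates at 50% or more, plus weaker picks with an unusually low signal ratio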;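 also: stock transfer was 100 nL into about 20 µL; 0% = negative control wells and 100% = wells with untagged competitor protein; inactives centre near -12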
# Sa growth inh second temp: second read-out of Sa growth inh, no call of its own (marks repeat the call); relative growth, %; measured here: growth at 30 °C;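 optical density after 20 h as mean of two plates; 100% = untreated growth and lower means inhibition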
# * hit, by the source's call; . = no result given; & = joins results of further samples.
# Sample of the layout, two compounds:
# The line under a structure holds: GIV Gai3 FP	Sa growth inh	Sa growth inh second temp	HCMV UL50-53 inh
- COc1ccc(NC(=O)c2c(C)oc3ccc(O)c(CN4CCC(C)CC4)c23)cc1Cl
    102	103	51	-7
- O=c1[nH]c(O)c(C=Nc2nc3ccccc3nc2N2CCCC2)c(=O)[nH]1
    .	94	87	-14

# Main list, previewed entries included:
# The line under a structure holds: GIV Gai3 FP	Sa growth inh	Sa growth inh second temp	HCMV UL50-53 inh
- COc1ccc(NC(=O)c2c(C)oc3ccc(O)c(CN4CCC(C)CC4)c23)cc1Cl
    102	103	51	-7
- O=c1[nH]c(O)c(C=Nc2nc3ccccc3nc2N2CCCC2)c(=O)[nH]1
    .	94	87	-14
- CCC(C)Nc1nc(NC)nc(NC(C)CC)n1 (stereo unspecified)
    96	74	78	-1
- COc1cccc(NC(=O)CSc2cc(C)c3ccccc3n2)c1
    101	100	85	-30
- O=C(C1CC(=O)N(C2CCCC2)C1)N1CCC(c2nc3ccccc3s2)CC1 (stereo unspecified)
    .	103	96	-5
- CC(C)CSc1nnc2sc3ccccc3n12
    101	91	65	.
- NC(=O)c1ccc(NC(=O)CSc2nc3ccccc3[nH]2)cc1
    .	99	80	-20
- CN(C(=O)CSCc1nc(-c2ccc(Cl)cc2)no1)C1CCCCC1
    100	.	.	-5
- O=C(Cc1ccsc1)NCC1COc2ccccc2O1 (stereo unspecified)
    .	127	98	12
- O=C(Oc1ccc(-c2nnco2)cc1)c1ccc2c(c1)S(=O)(=O)c1ccccc1C2=O
    .	98	90	-59
- CS(=O)(=O)NCCS(=O)(=O)N1CCN(c2ccccc2)CC1
    105	93	87	-40
- O=C(c1cnc2ccccc2c1Nc1ccc(F)c(F)c1)N1CCOCC1
    99	.	.	-32
- O=C(Nc1cc(Cl)ccc1Cl)c1ccc2c(c1)N(Cc1cccc(Cl)c1)C(=O)c1ccccc1S2=O (stereo unspecified)
    103	129	106	.
- COc1ccc(CCNC(C)C(=O)Nc2ccc(S(N)(=O)=O)cc2)cc1 (stereo unspecified)
    .	94	96	-3
- CCCCSCCCNC(=O)CN1C(=O)c2cccnc2Oc2ccc(Cl)cc21
    108	97	97	.
- C=CCn1c(SC)nc2sc3c(c2c1=O)CCCC3
    105	102	85	-6
- O=C(CSC1=NCCS1)N1CCN(c2ccc(Cl)cc2)CC1
    106	133	71	-3
- CN1CCN(c2c(C(=O)c3ccccc3)cnc3ccc(Cl)cc23)CC1
    103	98	82	-4
- COc1ccc(C2CC(=O)C3=C(C2)NC(C)=C(C(=O)OCC(C)C)C3c2ccc(OC)c(OC)c2)cc1 (stereo unspecified)
    96	.	.	-26
- CCc1ccccc1NC(=O)c1ccc2nc(N3CCC(C)CC3)sc2c1
    100	112	96	.

# Arranged by the number under GIV Gai3 FP (falling): some entries from above
Compound	GIV Gai3 FP	Sa growth inh	Sa growth inh second temp
CS(=O)(=O)NCCS(=O)(=O)N1CCN(c2ccccc2)CC1	105	93	87
CN1CCN(c2c(C(=O)c3ccccc3)cnc3ccc(Cl)cc23)CC1	103	98	82
CN(C(=O)CSCc1nc(-c2ccc(Cl)cc2)no1)C1CCCCC1	100	.	.
O=C(c1cnc2ccccc2c1Nc1ccc(F)c(F)c1)N1CCOCC1	99	.	.
COc1ccc(C2CC(=O)C3=C(C2)NC(C)=C(C(=O)OCC(C)C)C3c2ccc(OC)c(OC)c2)cc1 (stereo unspecified)	96	.	.

# Remaining list, next part
# The line under a structure holds: GIV Gai3 FP	Sa growth inh	Sa growth inh second temp	HCMV UL50-53 inh
- CC(C)Cc1ccc(S(=O)(=O)N2CCCc3ccccc32)cc1
    99	110	98	.
- Cc1nn(CCCC(=O)Nc2cc(C(F)(F)F)ccc2Cl)c(=O)c2c1sc1ccccc12
    106	108	78	-2
- CC1=NOC(=O)/C1=C\C=C/c1ccccc1
    96	85	71	.
- Cc1ccc(NC(=O)CC(C)S(=O)(=O)c2ccc3c(c2)NC(=O)CO3)c(C)c1 (stereo unspecified)
    102	116	94	.
- CC1Cn2c(C(=O)N3CCc4ccccc4C3)cc3c(Cl)ccc(c32)O1 (stereo unspecified)
    108&103	105	92	30
- O=C(O)C1C2C=CC(C2)C1C(=O)N1CCc2c([nH]c3ccccc23)C1C(F)(F)F (stereo unspecified)
    100	119	92	-27
- Cc1cccc(NC(=O)C2CCN(S(=O)(=O)c3cn(C(C)C)cn3)CC2)n1
    99	.	.	-15
- Cc1sc(NC(=O)c2ccccc2)c(C(Nc2ccccn2)c2ccccn2)c1C (stereo unspecified)
    100	.	.	-28
- CCC(NC(=O)Nc1ccccc1OC)c1c(-n2cccc2)sc2c1CCN(C)C2 (stereo unspecified)
    112	.	.	6
- Cc1cc(OCCn2c(CCNC(=O)C3CCCCC3)nc3ccccc32)ccc1Cl
    107	90	83	3
- CCCCNC(=O)C1CCC(Cn2c(=O)c3sccc3n(CC(=O)Nc3ccccc3)c2=O)CC1 (stereo unspecified)
    96	85	94	.
- COc1cccc(CNC(=O)c2nc(Cn3nc(C)c(Br)c3C)no2)c1
    104	76	94	.
- CC(C)C[C@H]1C(=O)N2CCC[C@H]2[C@]2(O)O[C@](NC(=O)[C@@H]3C=C4c5cccc6[nH]c(Br)c(c56)C[C@H]4N(C)C3)(C(C)C)C(=O)N12
    93	.	.	-27&-13
- CN(C)c1ccc(CNC(=O)c2cc3ccccn3n2)cc1
    106	97	76	.
- COc1ccc(-c2nc3scc(CCNS(=O)(=O)c4ccc(F)cc4F)n3n2)cc1OC
    99	105	97	.
- O=C(c1ccc(F)cc1)N1N=C(c2c(-c3ccccc3)c3cc(Br)ccc3[nH]c2=O)CC1c1ccco1 (stereo unspecified)
    100	.	.	-4
- O=C(CSc1c2c(nc3ccccc13)CCCC2)N1CCCc2ccccc21
    100	109	91	.
- CC(=O)N1c2ccc(S(=O)(=O)NCC3CCC(C(=O)Nc4ccc(C)cc4)CC3)cc2CC1C (stereo unspecified)
    103	90	90	.
- Cc1ccc(-c2c3c(=O)n(C)c(=O)n(C)c3c3c(C)nc4ccccc4n23)cc1
    100	93	89	-21
- CCSc1nnc2c(n1)OC(c1ccc(OC)cc1)N(C(C)=O)c1ccccc1-2 (stereo unspecified)
    103	.	.	-89
- CCc1cccc(NS(=O)(=O)c2ccc3c(c2)CC(=O)N3)c1
    102	93	82	.
- C=CCNC(=S)Nn1c(-c2ccccc2)nc2ccc(I)cc2c1=O
    .	99	83	-14
- CCOc1ccc(CNC(=O)CCc2cn(CC)c3ccccc23)cc1
    106	105	96	.
- CCc1ccc(N2C(=O)c3cc4ccsc4n3CC2(C)C(=O)NC2CCCC2)cc1 (stereo unspecified)
    105	.	.	-40
- COc1ccc(CCN2C(=O)c3cc4sccc4n3CC2(C)C(=O)NC2CCCCC2)cc1OC (stereo unspecified)
    98	.	.	-9
- COc1ccc(C2c3c(n(C)c4ccccc34)C(=O)N2CC(=O)NCCc2ccccc2)cc1 (stereo unspecified)
    102	.	.	-21
- CCOC(=O)c1ccc(Nc2ncnc3ccccc23)cc1
    106&102	132	88	7
- O=C(NCCc1nnc2ccc(NCCCc3ccccc3)nn12)c1ccccc1F
    105	.	.	-1
- CCN1CCC(N(Cc2ccc(F)cc2)C(=O)Nc2ccc(C)c(F)c2)CC1
    107	135	97	.
- O=C(/C=c1\[nH]c(=O)/c(=C/c2cccnc2)s1)c1ccc(Cl)cc1
    137	96	72	.
- COC(=O)c1cc(=O)[nH]c(=S)[nH]1
    .	94	102	-7
- CC1CCC(NC(=O)CCn2c(=O)c3cccn3c3cccnc32)CC1 (stereo unspecified)
    104	83	88	.
- COc1ccc(CNC(=O)CCc2nc(-c3ccc(C)cc3)no2)c(OC)c1
    106	105	109	6
- CCc1ccccc1NC(=O)CC1Sc2ccc(C(F)(F)F)cc2NC1=O (stereo unspecified)
    106	100	93	-27
- Cc1cc(C)cc(-n2c(SCC(=O)Nc3ccccc3F)nc3c(oc4ccccc43)c2=O)c1
    100	100	89	-13
- CC1=C(C(=O)OCCOc2ccccc2)C(c2cccc(Br)c2)NC(=O)N1 (stereo unspecified)
    102	.	.	5
- CS(=O)(=O)N1CCCN(c2nc3cc(Cl)ccc3n3cccc23)CC1
    104	.	.	-18
- O=C(CSc1nnc2[nH]c(=O)ccn12)N1CCc2ccccc21
    104	91	85	-33
- Cc1cccc(C(=O)Nc2ccc3nc(SCCOc4ccccc4)sc3c2)c1
    95	96	83	-28
- CC(C(=O)Nc1cccc(Cl)c1)n1cccc1 (stereo unspecified)
    110	115	96	6
- O=C(CCNc1cccc(Cl)c1)c1ccco1
    .	105	90	3
- CC(OC(=O)CN1C(=O)COc2ccccc21)C(=O)NCc1cccs1 (stereo unspecified)
    101	109	93	1
- CCSc1nn(CC(=O)Nc2cc(Cl)ccc2OC)c(N)c1S(=O)(=O)c1ccc(C)cc1
    100	.	.	-27
- Cc1cc(S(=O)(=O)N2CCc3cc4cccc(C)c4nc32)ccc1F
    101	.	.	7
- Cc1sc(N)c(C(=O)c2cccs2)c1C
    101	81	82	-15
- CCn1c(=O)c(C(=O)Nc2nc(C)cs2)c(O)c2ccccc21
    107	.	.	-24
- CCOC(=O)c1c(C)[nH]c(CCC(=O)NCc2cccc(OC)c2)c1C
    102	78	91	.
- CC(=O)Nc1ccc(C2C3=C(CCCC3=O)Nc3c2c(C)nn3-c2nc3ccccc3s2)cc1 (stereo unspecified)
    .	111	87	-28
- Cc1cnc(C(=O)N2CCN(c3ccc(C(F)(F)F)cn3)CC2)cn1
    101	85	84	-3
- N#CC1=C(N)Oc2n[nH]c(CSc3ccccc3)c2C1Cc1ccccc1 (stereo unspecified)
    101	137	58	-12
- CC(C)(C)NC(=O)Oc1ccc(Cl)cc1
    102	118	90	-5
- O=C1OCc2ccc(NS(=O)(=O)c3ccccc3)cc21
    103	81	85	-10
- CN(C)CC#CCC1(O)c2ccccc2-c2ccccc21
    106	88	77	-14
- C=CCNc1nc2ccccn2c(=O)c1/C=C1\SC(=S)N(C)C1=O
    -24*	85	81	-36
- COc1ccccc1NC(=O)c1nn(C)c2c1CSc1ccccc1-2
    101	.	.	-12
- Cc1ccc(C(=O)OC2CSC2)cc1
    .	88	89	-18
- CC1CCCN(c2nc3nonc3nc2Nc2ccc3c(c2)OCO3)C1 (stereo unspecified)
    108	.	.	-15
- COc1cccc(-c2nn(C)c3sc(C(=O)NCC4COc5ccccc5O4)cc23)c1 (stereo unspecified)
    99&102	82	82	-10&-3
- Cc1nnc(SCC(N)=O)c2ccccc12
    109	.	.	-13
- Cc1nn(-c2ccccc2)c(C)c1NC(=O)COC(=O)c1ccccc1
    .	78	91	-22

# The results go on.
# The line under a structure holds: GIV Gai3 FP	Sa growth inh	Sa growth inh second temp	HCMV UL50-53 inh
- NC(=S)c1cc(-c2ccccc2)c(C(F)(F)F)s1
    102	57	37	-41
- CC(C)Cn1c(NC(=O)Nc2ccccc2F)c2ccccc2nc1=O
    98	86	79	-40
- CC1(C)CC(N=Cc2c(O)[nH]c(=O)[nH]c2=O)CC(C)(C)N1
    103	96	100	-1
- CCOc1ccc(O)c(C=NC2CCCC2)c1
    .	91	89	-24
- COc1cc(C=Nc2cc(Cl)ccc2O)ccc1O
    108	80	89	-35
- CN1c2ccsc2C(=O)/C(=C\N=S(C)(=O)c2ccc(Cl)cc2)S1(=O)=O (stereo unspecified)
    107	96	84	-222
- Cc1ccc(NS(=O)(=O)c2ccc3[nH]c4c(c3c2)CCCCC4)cc1
    108	91	75	.
- N=C1c2ccccc2CN1Nc1ncc(C(F)(F)F)cc1Cl
    .	89	92	3
- CC(O)CNc1ccc(C(F)(F)F)cn1 (stereo unspecified)
    106	109	92	-10
- CCOc1ccccc1CNC(=O)c1ccc(NC(=O)N2CC(C)Sc3ccccc32)cc1 (stereo unspecified)
    99	100	88	-21
- COc1ccccc1-c1cc(C(=O)Nc2sc3c(c2C#N)CCCC3)no1
    103	90	104	-7
- Cc1ccccc1-c1noc(N2CCC(C(=O)N3CCN(C4CCCCC4)CC3)CC2)n1
    99	.	.	0
- CC1(C(=O)O)CCC(c2nc(N)n[nH]2)C1(C)C (stereo unspecified)
    104	74	89	-28
- Cc1cc(C)cc(-n2ccnc2SCC(=O)Nc2ccc(C)cc2C)c1
    102	95	97	.
- O=C(NCc1ccccc1Cl)c1ccc(NC(=O)N2CCSc3ccccc32)cc1
    102&102	110	85	-17&-10
- CN1CCN(c2ccc3nnc(CCC(=O)Nc4nccs4)n3n2)CC1
    100	94	92	.
- Nc1cccc(-c2csc(N)n2)c1
    105&100	95	94	-24&-32
- O=C(O)CC1c2ccccc2CCN1S(=O)(=O)c1ccccc1 (stereo unspecified)
    .	162	98	-7
- CCOC(=O)c1ccc(N2C(=N)S/C(=C\c3cnn(-c4ccccc4)c3)C2=O)cc1
    105	92	87	-10
- CCOC(=O)c1cc(-c2ccc(OC)c(S(=O)(=O)Nc3cc(C)on3)c2)on1
    106	.	.	-4
- O=C(COc1ccccc1C(=O)O)NCc1ccccc1
    .	129	82	-33
- COc1cccc(/C=N/c2c(-c3ccccc3)c(C(F)(F)F)nn2C)c1OC
    100	81	92	.
- COc1ccc(OC)c(NC(=O)Cn2cnc3c(nnn3Cc3ccc(F)cc3)c2=O)c1
    101	101	87	-2
- CN1CCN(c2ccc(NC(=O)Nc3ccc(C(F)(F)F)cc3)cc2)CC1
    105	106	97	22
- COc1ccc(C(c2c(C)n(C)n(-c3ccccc3)c2=O)c2c(C)n(C)n(-c3ccccc3)c2=O)cc1O
    107	123	96	3
- Cc1nc(C)c(/C(O)=C/c2nc3cc(Cl)ccc3oc2=O)o1
    111	70	91	.

# Source: PubChem (ICCB-Longwood Screening Facility, Harvard Medical School)
